Cruzain inh Det: blocks cruzain activity in presence of Triton detergent; purified cruzain, Z-FR-AMC fluorescence, 0.01% Triton; AID 1478; 200,000 tested, 0.43% active; Potency, µM, for the others: max response, negative = inhibition, usual class: inhibitors; P25779;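 note: plate controls were neutral wells for no effect and buffer without enzyme for full effect; nearly all actives have a fitted effect of over 40% in size; top concentration of the series not given in the record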
Target sequence (P25779 123-467 limits assumed): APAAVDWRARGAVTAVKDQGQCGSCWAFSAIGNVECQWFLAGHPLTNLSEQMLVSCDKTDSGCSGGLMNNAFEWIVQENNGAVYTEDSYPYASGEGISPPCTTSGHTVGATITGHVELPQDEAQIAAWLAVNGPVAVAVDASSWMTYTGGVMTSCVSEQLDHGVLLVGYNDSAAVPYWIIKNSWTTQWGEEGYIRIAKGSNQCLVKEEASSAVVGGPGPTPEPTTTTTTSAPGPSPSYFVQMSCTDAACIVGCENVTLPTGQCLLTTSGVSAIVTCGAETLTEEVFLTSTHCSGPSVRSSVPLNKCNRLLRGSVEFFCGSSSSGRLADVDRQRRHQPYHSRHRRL
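Cysteine protease activity tested under reducing, mildly acidic conditions (100 mM sodium acetate pH 5.5, 5 mM DTT) plus 0.01% Triton X-100. Cruzain 1.5 nM; substrate Z-FR-AMC 2 uM; 15 min compound preincubation at room temperature.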
RE007 growth inh: less growth of the S. pombe RE007 Vpr strain | S. pombe RE007 Vpr strain, BacTiter-Glo ATP luminescence, 24 h; control for the full effect not named in the record | Potency, µM (doses to about 92.2 µM), inactives show top-dose activity change, negative = less growth | 360,000 tested, 0.21% active | AID 651644; active = well fitted falling curve with a large enough effect; inconclusive = small, poorly fitted or top-dose-only effect; inactive = no such curve, though single readings can be large or run the other way;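 note: % is set by controls: 0 for no effect and ±100 for the full control effect; nearly all actives have a fitted effect of over 50% in size; the assay follows cell death caused by Vpr and the record does not say whether a fall means rescue or toxicity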
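Fission yeast RE007 carrying one integrated HIV-1 vpr copy, seeded at OD 0.01 in PMG+AL medium with 23 nL pinned compound. Grown 24 h at 30 degrees; viability read by BacTiter-Glo luminescence after 5 min.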
NS1 function inh: blocks influenza NS1 protein function; 270,000 tested, 0.4% active; S. cerevisiae slowed by influenza A NS1, growth recovery by OD600; AID 2326; Potency, µM (doses to about 46.1 µM), for inactives: at the top dose activity, positive = more growth; active means well fitted rising curve with a large enough effect; inconclusive means small, poorly fitted or top-dose-only effect; inactive means no such curve, though single readings can be large or run the other way; note: nearly all actives have a fitted effect of over 50% in size
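Growth recovery, yeast-based: influenza A NS1 expressed in S. cerevisiae causes slow growth, and suppressors are detected by OD600. The parent strain without NS1 is used as positive control.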
Cruzain noTriton: inhibitors of Trypanosoma cruzi cruzain without detergent. 200,000 tested, 2.3% active. purified cruzain, Z-FR-AMC fluorescence, no detergent. P25779. Potency, µM, for inactives: max response, negative = inhibition, hits mostly inhibitors. AID 1476;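 note: plate controls were enzyme without inhibitor for no effect and buffer without enzyme for full effect; nearly all actives have a fitted effect of over 40% in size; top concentration of the series not given in the record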
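Purified cruzain at 1.5 nM, pre-incubated 15 min with compound at room temperature in 100 mM sodium acetate pH 5.5, 5 mM DTT, 0.00005% Triton X-100. Reaction started with 2 uM Z-FR-AMC; AMC fluorescence increase over 60 s gives rate.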
SARS PLpro yeast: inhibitors of SARS-CoV papain-like protease in yeast; S. cerevisiae expressing SARS-CoV PLpro, growth rescue; control for the full effect not named in the record; Potency, µM (top dose mostly 32.9 µM), for inactives: at the highest dose activity, positive = growth rescue; 330,000 tested, 0.19% active; active means well fitted rising curve with a large enough effect; inconclusive means small, poorly fitted or top-dose-only effect; inactive means no such curve, though single readings can be large or run the other way; note: 0% is about no effect; nearly all actives have a fitted effect of over 55% in size; growth read by luminescence after 48 h
2A StopGo: lowers the luciferase signal of an FMDV 2A StopGo reporter; human cells with a luciferase reporter of 2A StopGo recoding; control for the full effect not named in the record; Potency, µM (top dose mostly 57.9 µM), without a hit: top-dose signal change, negative = less light; 410,000 tested, 1.2% active; active = well fitted falling curve with a large enough effect; inconclusive = small, poorly fitted or top-dose-only effect; inactive = no such curve, though single readings can be large or run the other way; tested in HEK293T cells; note: % is set by controls: 0 for no effect and ±100 for the full control effect; nearly all actives have a fitted effect of over 45% in size; luciferase light after 4 h
MARV entry inh: Marburg virus entry inhibition; Marburg virus pseudotyped entry inhibition, cell reporter; control for the full effect not named in the record; about a third of the inactives were read at about 46 µM; Potency, µM (doses to about 37.8 µM), for inactives: at the top dose activity change, negative = inhibition, hits mostly inhibitors; 300,000 tested, 1.8% active; AID 540276; active = well fitted inhibition curve with a large enough effect; inconclusive = small, poorly fitted or top-dose-only effect, or effect the other way; inactive = flat fitted curve, though single readings scatter; tested in HEK293 cells; about a fifth of its hits are not listed in these tables; note: % is set by controls: 0 for no effect and ±100 for the full control effect; luciferase read-out
LASV entry inh: Lassa virus entry inhibition; Potency, µM (top dose mostly 37.9 µM), for inactives: at the top dose activity change, negative = inhibition, hits mostly inhibitors; 300,000 tested, 1.2% active; Lassa virus pseudotype entry inhibition, cell reporter; control for the full effect not named in the record; active means well fitted inhibition curve with a large enough effect; inconclusive means small, poorly fitted or top-dose-only effect, or effect the other way; inactive means flat fitted curve, though single readings scatter; tested in HEK293 cells; note: % is set by controls: 0 for no effect and ±100 for the full control effect; nearly all actives have a fitted effect of over 50% in size; luciferase read-out
Starred values were filed as active, the others as inactive; ? = inconclusive; . = not tested or not shown; [ ] = dose if it differs, or a comment. Unless noted, calls come from the whole dose curve; as a rule, active = well fitted curve in the direction sought with a large enough effect; inconclusive = small, poorly fitted or top-dose-only effect, or another doubt; inactive = no such curve, though single readings can be large; an effect the other way counts as inactive or inconclusive. Potency is the fitted concentration of half-maximal effect.

Every second line gives: Cruzain inh Det, RE007 growth inh, NS1 function inh, Cruzain noTriton, SARS PLpro yeast, 2A StopGo, MARV entry inh, LASV entry inh
COc1ccccc1CNC(=O)CCC1N=C2c3ccccc3N=C(SCc3ccc(C)cc3)N2C1=O (stereo not drawn)
→ 0.5%, ., ., 11%, ., 31%[activator], ., -25%[46.1 µM]
CCCCNC(=O)C1CCCN(S(=O)(=O)c2ccc(S(=O)(=O)NCC(C)C)cc2)C1 (stereo not drawn)
→ 1.1%, -7%, 5%, -13%, -6%, 4%, ?, -9%
C=CCNc1nc2c(c(=O)[nH]c(=O)n2C)n1CCCc1ccccc1
→ ., -7%, 9%, ., -9%, -3%, ., .
O=S(=O)(NCc1ccc(Cl)cc1)c1ccc(N2CCCCS2(=O)=O)cc1
→ -0.9%, ., ., 6%, ., -18%, ., 6%[46.1 µM]
Cc1cc(OCC(=O)Nc2c(C(=O)c3ccccc3)oc3ccccc23)cc(C)c1Cl
→ -0.4%, ., ., 14%, ., -15%, ?, -13%[46.1 µM]
CC(=O)c1c(C)[nH]c(C(=O)Nc2cccc(C)c2C)c1C
→ ., -8%, -15%, ., -2%, -11%, -11%[46.1 µM], 14%
CCn1c(SCC(=O)Nc2ccc(F)cc2F)nc2c(c1=O)SCC2
→ ., -8%, 11%, ., 2%, -16%, -19%, 2%
O=C(N/C(=C/c1cccs1)C(=O)N1CCOCC1)c1cccs1
→ ., 17%, 4%, ., -1%, -13%, 11%, 0%
CC1=CC(C)(C)N(C(=O)C(C)N2C(=O)c3ccccc3C2=O)c2ccc(C)cc21 (stereo not drawn)
→ -12%, 12%, -14%, 4%, -23%, ?, -3%, -8%
O=C(c1cc(COc2ccc(F)cc2Cl)on1)N1CC2C[C@@H]3CC1C[C@H](C2)C3
→ ., 17%, -18%, ., -6%, 36%[activator], ., .
Cc1ccc(C)c(S(=O)(=O)N=Nc2c(O)[nH]c3ccccc23)c1
→ ., -7%, ., ., 0%, -10%, -2%[46.1 µM], 3%
COc1ccc(N2CCN(C(=O)Cc3coc4cc(C)ccc34)CC2)cc1
→ ., 17%, 1%, ., -2%, -9%, 1%[14.2 µM], -22%
CSc1nc2[nH]c(=O)n(O)c(=O)c2n1Cc1ccccc1
→ ., -27%, ., ., ., 0%, 0%[46.1 µM], -13%[46.1 µM]
O=C(N/N=C/c1ccc([N+](=O)[O-])s1)c1ccccc1Br
→ -4.4%, -1%, -51%, -10%, -31%, ., ?, ?
CCOc1ccccc1C(=O)Nc1ccc(S(=O)(=O)Nc2nc(C)cc(C)n2)cc1
→ -4.6%, ., ., 19%, ., 41%[activator], 20%[46.1 µM], 4%[46.1 µM]
COCCn1c(SCC(=O)c2ccccc2)nc2c(c1=O)SCC2
→ ., -8%, ., ., 2%, -21%, -2%[46.1 µM], 4%[46.1 µM]
CCCN1CCc2c(sc(NC(=O)c3ccc(S(=O)(=O)N4CCN(C(=O)OCC)CC4)cc3)c2C(N)=O)C1
→ ., 2%, 22%, ., 0%, -23%, ., .
Cc1ccccc1N(CC(=O)N/N=C/c1cc(C)n(-c2ccccc2C)c1C)S(C)(=O)=O
→ -3.6%, 30%, 9%, 3%, 13%, -30%, -6%, -16%
COc1ccc(/C=C/C(=O)OCC(=O)Nc2ccc(N3CCOCC3)cc2)cc1OC
→ ., -10%, 4%, ., 1%, 3%, ., .
CSc1ccccc1OCc1cc(C(=O)NCCc2ccco2)no1
→ ., -4%, -6%, ., -1%, 28%, ?, 6%

Other structures.
molecule	Cruzain inh Det	RE007 growth inh	NS1 function inh	Cruzain noTriton	SARS PLpro yeast	2A StopGo	MARV entry inh	LASV entry inh
CC1CCCC(C)N1C(=O)CSc1nnc(-c2cccs2)o1 (stereo not drawn)	4.8%	7%	-9%	-3%	-4%	.	?	-3%
Cc1cc(C)cc(NC(=O)C(CC(C)C)NC(=O)C2CCCCC2)c1 (stereo not drawn)	-2.1%	.	.	4%	.	-3%	19%[46.1 µM]	5%[46.1 µM]
Cc1ccc(C)c(N2CCN(CCCc3ccccc3)CC2)c1	.	-11%	6%	.	-4%	-31%	.	.
O=C(/C=C/c1ccco1)NCCCN1CCOCC1	.	7%	1%	.	1%	-5%	?	0%
Cc1ccc(S(=O)(=O)N2CC3(C)CN(S(=O)(=O)c4ccc(C)cc4)CC(C)(C2)C3O)cc1 (stereo not drawn)	2.2%	-2%	-6%	?	-2%	21%	10%	27%
CS(=O)(=O)N1CCN(c2ccc(NC(=S)NC(=O)c3ccccc3[N+](=O)[O-])cc2)CC1	.	-1%	.	.	-6%	?	-30%[46.1 µM]	?
O=[N+]([O-])c1ccc2c(c1Nc1ccccc1)=NC1(CCCCC1)N=2	-4.1%	32%	17%	-21%	-2%	?	11%	3%
CCOC(=O)c1ccccc1NC(=O)N1CCCN(S(=O)(=O)c2ccc3c(ccn3CC)c2)CC1	-9.1%	.	.	20%	.	-24%	.	?
O=C(COc1ccc(F)cc1Cl)Nc1ccccc1C(=O)N1CCCCC1	.	-17%	.	.	7%	29%	-19%	16%
CCC(=O)N/N=C(\C)CC(=O)Nc1ccc2ccccc2c1	2.9%	-14%	19%	-4%	-10%	-3%	?	16%
CCCS(=O)(=O)N1CCN(S(=O)(=O)c2ccc(F)cc2)CC1	-3.2%	10%	6%	-12%	-2%	-5%	-10%	25%
COc1ccc(N(CCC(=O)O)S(=O)(=O)c2ccc(C)c(C)c2)cc1	.	-5%	-3%	.	-1%	18%	-17%[46.1 µM]	16%
COc1ccccc1C=NC(CO)C(O)c1ccc([N+](=O)[O-])cc1 (stereo not drawn)	-2.2%	-26%	0%	-2%	2%	-8%	9%[46.1 µM]	-14%
COC(=O)c1cccc(NC(=S)NCc2ccc(Cl)cc2)c1	-3.6%	1%	11%	0%	-17%	-15%	-5%	-10%
c1ccc(CSc2nnc(-c3cccnc3)o2)cc1	0.5%	-23%	-18%	5%	-14%	51%[activator]	12%	18%

Among those listed so far, six contain an aryl thioether with sulfur outside any ring:
molecule	Cruzain inh Det	RE007 growth inh	NS1 function inh	Cruzain noTriton	SARS PLpro yeast	2A StopGo	MARV entry inh	LASV entry inh
CCn1c(SCC(=O)Nc2ccc(F)cc2F)nc2c(c1=O)SCC2	.	-8%	11%	.	2%	-16%	-19%	2%
CSc1nc2[nH]c(=O)n(O)c(=O)c2n1Cc1ccccc1	.	-27%	.	.	.	0%	0%[46.1 µM]	-13%[46.1 µM]
COCCn1c(SCC(=O)c2ccccc2)nc2c(c1=O)SCC2	.	-8%	.	.	2%	-21%	-2%[46.1 µM]	4%[46.1 µM]
CSc1ccccc1OCc1cc(C(=O)NCCc2ccco2)no1	.	-4%	-6%	.	-1%	28%	?	6%
CC1CCCC(C)N1C(=O)CSc1nnc(-c2cccs2)o1 (stereo not drawn)	4.8%	7%	-9%	-3%	-4%	.	?	-3%
c1ccc(CSc2nnc(-c3cccnc3)o2)cc1	0.5%	-23%	-18%	5%	-14%	51%[activator]	12%	18%

Remaining list, next part:
molecule	Cruzain inh Det	RE007 growth inh	NS1 function inh	Cruzain noTriton	SARS PLpro yeast	2A StopGo	MARV entry inh	LASV entry inh
C=C(C)c1cccc(C(C)(C)NC(=O)Nc2ccc3[nH]c(=O)[nH]c3c2)c1	3.7%	1%	0%	-5%	7%	-3%	-4%	3%
Cc1ccc(-c2nnc(-c3ccccc3)c(-c3ccccc3)n2)cc1	-9.5%	-8%	-26%	-27%	-39%	-5%	0%	-20%
CC(C)Cn1c(SCC(=O)Nc2ccc(Cl)cc2F)nc(O)cc1=O	.	6%	.	.	7%	0%	21%	-11%
CCCCCCc1nc2ccccc2c(=O)n1N	0.8%	20%	-17%	-3%	-4%	-22%	?	?
COc1cc(SC)ccc1C(=O)N1CCN(Cc2ccc3c(c2)OCO3)CC1	.	3%	3%	.	10%	?	.	.
N=C1S/C(=C\c2cccc3ccccc23)C(=O)N1c1ccc(F)cc1	-7.1%	5%	3%	?	-2%	-21%	?	8.9µM*
CC(C)(C)C1CCc2c(sc(NC(=O)c3cccs3)c2C(=O)N2CCCCC2)C1 (stereo not drawn)	-4.5%	1%	24%	-3%	-13%	?	?	?
N#C/C(=C\c1ccc(OC(=O)c2cccs2)cc1)c1nc2ccccc2[nH]1	0.2%	-13%	-18%	?	-3%	43%[activator]	-26%	11%
Cc1ccc(NC(=O)Cn2c(=O)n(Cc3nc(-c4ccccc4)no3)c(=O)c3cc4c(cc32)OCO4)cc1C	-2.2%	.	.	10µM*	.	?	.	-23%[46.1 µM]
CCCCCC(=O)Nc1cccc(C2=NOC3(C2)C[C@@H](C(N)=O)N(C(=O)C2(C)CC2)C3)c1 (stereo partly drawn)	.	5%	3%	.	-2%	5%	.	.
COc1ccc(C(=O)Nc2cc(Cl)ccc2N2CCOCC2)cc1S(=O)(=O)N1CCOCC1	.	-22%	.	.	-3%	-14%	-30%	-2%
Cc1ccc(-n2c(=O)[nH]cc(C(=O)N3CCc4ccccc43)c2=O)cc1	0.2%	-2%	-6%	1%	-1%	-10%	0%	-6%
Cc1nc(=O)c(-c2ccccc2)c(C)n1-c1ccccc1O	-3.6%	12%	-2%	-9%	-18%	0%	-8%	-1%
Cc1cccc(OCC(=O)Nc2c(C(=O)Nc3ccc(F)cc3)oc3ccccc23)c1	0.9%	.	.	1%	.	18%	24%[46.1 µM]	25%[46.1 µM]
Cc1cccc(-c2cc3nc(C)cc(C)n3n2)c1	.	?	-7%	.	-2%	50%[activator]	?	?

This is a random part of the collection; 4.8% or so of the library scored in one or more.
